Screens as filed in PubChem BioAssay.
GLA inh pH 4.5: blocks human alpha-galactosidase A at pH 4.5. P06280. purified enzyme, 4-MU-alpha-Gal fluorescence, pH 4.5. activity change, negative = inhibition, % at 105 µM. 230,000 tested, under 10 active. AID 1467; inconclusive = small, poorly fitted or top-dose-only inhibition, or a rising curve; inactive = flat fitted curve, though single readings scatter; no compound was filed as active;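 note: 0% = full activity with enzyme and -100% = basal without enzyme; dose as in the result columns while the protocol names 77 µM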
Target sequence (P06280 whole entry, looked up): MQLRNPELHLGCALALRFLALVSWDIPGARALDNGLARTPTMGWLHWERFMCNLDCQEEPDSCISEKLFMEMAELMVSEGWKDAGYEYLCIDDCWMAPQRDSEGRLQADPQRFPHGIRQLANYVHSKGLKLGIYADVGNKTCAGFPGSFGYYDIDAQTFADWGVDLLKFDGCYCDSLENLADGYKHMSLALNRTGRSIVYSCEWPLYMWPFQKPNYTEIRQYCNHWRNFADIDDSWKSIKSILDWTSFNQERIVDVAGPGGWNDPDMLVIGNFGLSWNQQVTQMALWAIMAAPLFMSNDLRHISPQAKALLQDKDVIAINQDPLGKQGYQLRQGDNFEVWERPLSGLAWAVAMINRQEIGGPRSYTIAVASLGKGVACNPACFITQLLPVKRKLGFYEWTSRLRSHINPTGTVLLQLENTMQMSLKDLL
Rango complex inh: prevents formation of the Rango-importin beta complex; AID 540263; 340,000 compounds, 0.031% hits; Q14974; Rango CFP/YFP FRET sensor + importin beta, 45 min; Potency, µM (highest dose often 92.2 µM), for inactives: at the top dose inhibition of complex formation; active = rising FRET ratio curve, often small or poorly fitted; inconclusive = mostly compound fluorescence or quenching in the first reads; inactive = flat curves in all reads;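 note: potency is the fitted concentration of half-maximal effect; 0% = DMSO wells and 100% = buffer wells lacking importin beta; nearly all actives have a fitted effect of over 15% in size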
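FRET biosensor (snurportin 1 IBB flanked by EYFP and cerulean), 50 nM, with compound 5 min, then 0.125 microM importin beta in PBS, 1 mM DTT, 0.02% Tween-20, 0.1% BSA. CFP/YFP ratio read after 45 min at room temperature; pre-read flags interference.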
Rango dissoc inh: prevents RanGTP from dissociating the Rango-importin beta complex. Potency, µM (doses to about 46.1 µM), for the others: top-dose activity change, negative = inhibition. 340,000 compounds, 0.071% hits. Biochemical FRET Rango-importin beta, RanGTP-induced dissociation. O95149+P62826. AID 540253; active means falling FRET ratio curve, often poorly fitted, with flat reads before Ran was added; inconclusive means other falling curves, or compound fluorescence or quenching; inactive means flat or rising ratio curve;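 note: potency is the fitted concentration of half-maximal effect; % of control where 0% means no effect; nearly all actives have a fitted effect of over 45% in size; -100% = wells without RanGTP and RCC1; the record marks most hits as doubtful in a second field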
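Rango FRET biosensor (snurportin-1 IBB flanked by N-terminal EYFP and C-terminal CFP10) at 0.1 uM, with 0.25 uM importin beta in PBS, 1mM DTT, 0.02% Tween-20, 0.1% BSA. 0.6 uM Ran, 2mM GTP and 0.2 uM RCC1 were then added for 45 min at room temperature. Inhibition read as loss of FRET rise.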
miR-21 reporter: miR-21 reporter, rising signal; HeLa miR-21 FLuc reporter, luciferase, 48 h; Potency, µM (highest dose often 38.3 µM), for the others: at the highest dose reporter change, positive = more light; 340,000 tested, under 10 active; active = well fitted rising curve with a large enough effect; inconclusive = small, poorly fitted or top-dose-only effect; inactive = no such curve, though single readings can be large or run the other way;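 note: % of control where 0% means no effect; miR-21 action dims this reporter so a rising signal means less miR-21 action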
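Compounds were titrated across several concentrations (up to approximately 40 uM) and incubated 48 hours with HeLa miR-21-FLuc reporter cells (miR-21 target sequence downstream of FLuc, endogenous miR-21). Readout was firefly luciferase luminescence after lytic detection reagent.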
Starred values were filed as active, the others as inactive; ? = inconclusive; . = no result given; & = joins results of further samples.

SMILES	GLA inh pH 4.5	Rango complex inh	Rango dissoc inh	miR-21 reporter
O=C(COC(=O)c1cccc(C(F)(F)F)c1)NCc1ccccc1	-2	-4.5%	15%	-12%
CC(C)CNS(=O)(=O)c1cc2c3c(c1)CC(=O)N3CCC2	.	0.9%	6%	-6%
Cc1ccccc1NC(=O)Cn1cnc2c1c(=O)n(C)c(=O)n2C	9	-5.0%	-5%	0%
C[C@H](CO)N1C[C@H](C)[C@@H](CN(C)S(=O)(=O)c2cn(C)cn2)Oc2c(NS(=O)(=O)c3ccc(F)cc3)cccc2C1=O	.	-1.6%	3%	.
COC(=O)c1ccccc1S(=O)(=O)Nc1ccc2cn[nH]c2c1	2	?	2%	-11%
COc1ccccc1N(C)S(=O)(=O)c1ccc(C(=O)Nc2ncc(C)s2)cc1	.	-0.5%	-9%	.
Cc1cc([N+](=O)[O-])ccc1NC(=O)Nc1ccccc1F	-3	7.5%	-1%	-1%
O=C(Oc1cccc(/C=N/Nc2nc(N3CCOCC3)nc(N3CCOCC3)n2)c1)c1ccco1	-3	-2.2%	19%	-5%
COc1cc(C(=O)Nc2nc(-c3ccc(Cl)cc3)c(C)s2)ccc1OCC(=O)Nc1ccc(F)cc1	4	7.4%	0%	-5%
Cc1[nH]nc(SCC(=O)Nc2cccc(O)c2)c1[N+](=O)[O-]	-3	-3.0%	4%	-17%
O=C(NCCC1=CCCCC1)c1cnc2n(c1=O)CCS2	0	-1.8%	20%	-63%
CCOC(=O)Cc1csc(NC(=O)/C=C/c2ccccc2Cl)n1	?	-3.9%	-6%	0%
O=C(O)CC1=C(O)C(=O)N(c2ccccc2)C1c1ccc(Cl)cc1 (centres undefined)	-9	1.1%	-17%	-2%
CCC(C)[C@H](NC(=O)Nc1ccc2c(c1)OCCO2)C(=O)O (some centres undefined)	-9	-1.5%	19%	-8%
Cc1cc(C(=O)OCC(=O)Nc2cccc(S(=O)(=O)N(C)C)c2)c(C)o1	-8	-1.9%	22%	-1%
Cc1cc(C)n(CC(=O)NC2CCCCC2)n1	4	3.7%	-1%	-5%
Cc1cc(CN(C)C(=O)CC2C(=O)NCCN2Cc2c(F)cccc2Cl)on1 (centres undefined)	-1	2.9%	-1%	1%
FC(F)(F)c1nnc(-c2ccccc2)nc1N1CCOCC1	-2	0.5%	33%	-3%
O=C(OCn1nnc2ccccc2c1=O)c1ccc2c(=O)n3c(nc2c1)CCC3	8	1.4%	0%	-4%
COc1ccc(CN(C2CCCC2)S(=O)(=O)c2ccc(-n3cnnn3)cc2)cc1OC	-11	4.8%	-15%	-2%

Quoted at random: five records from the list.
SMILES	GLA inh pH 4.5	Rango complex inh	Rango dissoc inh	miR-21 reporter
O=C(O)CC1=C(O)C(=O)N(c2ccccc2)C1c1ccc(Cl)cc1 (centres undefined)	-9	1.1%	-17%	-2%
CCC(C)[C@H](NC(=O)Nc1ccc2c(c1)OCCO2)C(=O)O (some centres undefined)	-9	-1.5%	19%	-8%
O=C(OCn1nnc2ccccc2c1=O)c1ccc2c(=O)n3c(nc2c1)CCC3	8	1.4%	0%	-4%
O=C(NCCC1=CCCCC1)c1cnc2n(c1=O)CCS2	0	-1.8%	20%	-63%
COc1ccc(CN(C2CCCC2)S(=O)(=O)c2ccc(-n3cnnn3)cc2)cc1OC	-11	4.8%	-15%	-2%

The results go on:
SMILES	GLA inh pH 4.5	Rango complex inh	Rango dissoc inh	miR-21 reporter
O=C(c1ccccc1Br)N1CCN(c2ccccn2)CC1	.	-3.1%	11%	0%
COc1ccc(-n2c(CNC(=O)COc3ccccc3)n[nH]c2=S)cc1	1	-3.9%	-2%	-7%
COc1ccc(-c2ccc(SCC(=O)N3CCN(c4ccccc4)CC3)nn2)cc1	0	0.8%	-6%	-2%
COc1ccc(S(=O)(=O)N2CCc3ccccc32)cc1C(=O)N1CCOCC1	.	0.3%	9%	.
NC(=S)N/N=C1\CCOc2ccc(Cl)cc21	-11	-1.0%	-7%	?
Cc1cc(NS(=O)(=O)c2ccc(Nc3nc(-c4sc(N)nc4C)cs3)cc2)no1	10	?	?	0%
Cc1cccc(C)c1NC(=O)C1CCN(S(C)(=O)=O)CC1	.	-5.3%	-27%	4%
COc1cccc(CN(Cc2cccnc2)S(=O)(=O)c2ccc(-n3cnnn3)c(C)c2)c1	-1	-2.0%	-12%	18%
CCOc1ccc(N(CC(=O)NC2CCCCC2)C(=O)CSc2nnc(COc3ccccc3)o2)cc1	-16	-2.9%	5%	0%
O=C(Cn1cncc1-c1ccc([N+](=O)[O-])cc1)Nc1cccc2ccccc12	-5	-1.0%	-13%	-12%
Cc1cc(C)cc(NC(=O)N2C3CCCC2CC(NC(=O)C2CC2)C3)c1 (centres undefined)	.	0.1%	10%	0%
COCC(=O)N1CCc2ccc(NC(=O)c3ccccc3Cl)cc2C1	.	4.7%	2%	-10%
C=CCNC(=S)Nc1ccc(N2CCOCC2)c(S(=O)(=O)Nc2ccccc2Cl)c1	5	2.6%	-6%	0%
O=C(CNC(=O)c1ccco1)OCC(=O)c1ccc2ccccc2c1	-3	6.2%	1%	1%
COc1ccc(CNC(=S)Nc2ccc(-c3ccccc3)cc2)cc1	1	4.2%	1%	-20%
C=CCOc1ccc(CN(C)CC(=O)Nc2ccccc2[N+](=O)[O-])cc1	-15	-4.3%	-21%	-7%
CCCc1cc(Nc2cccc(OCC)c2)n2ncnc2n1	6	-3.6%	-4%	-20%
CC[C@]12c3[nH]c4cc(CCC(=O)N(C)C)ccc4c3CCN1C(=O)[C@@H](CC(=O)NCCCOC)C[C@@H]2C(=O)N1CCN(C(=O)C2CC2)CC1	.	-3.1%	-7%	.
Cc1ccc(S(=O)(=O)N(C)c2ccc(C(=O)N3CCN(Cc4ccc5c(c4)OCO5)CC3)cc2)cc1	-5	-1.3%	-9%	23%
C=CCOc1cccc(NC(=O)c2ccccc2SC)c1	6	?	2%	-19%
CCOc1cc(C)c(S(=O)(=O)NCCCn2ccnc2)cc1C	.	-4.3%	1%	7%
Clc1ccc(Oc2cnc3ccccc3n2)cc1	-19	?	-17%	-9%
Cc1cc(C(=O)OCC(=O)NCCCN2CCCC2=O)c2ccccc2n1	3	0.3%	17%	-1%
Cc1ccc(C(=O)NC(=S)Nc2ccc(N3CCN(C(=O)c4ccco4)CC3)cc2)cc1	.	0.0%	18%	3%
Cc1ccc(-c2cc(C(=O)N3CC(C)OC(C)C3)c3ccccc3n2)o1 (centres undefined)	.	?	?	.
O=C(COc1ccc(Cl)cc1Cl)Nc1c(-c2cccs2)nc2ccccn12	5	-3.2%	6%	-26%
Cc1ccc2nc(N3C(=O)C(O)=C(C(=O)c4ccc(C)o4)C3c3ccc(O)cc3)sc2c1 (centres undefined)	.	?	?	.
C(=C\c1ccco1)/C=N/n1cnnc1	-5	-0.3%	-1%	-5%
Cc1ccc(S(=O)(=O)N2CCN(C(=O)NCc3ccc(C(=O)O)cc3)CC2)cc1	.	-2.2%	0%	1%
Cc1ccc(-c2nn(-c3ccccc3)cc2NC(=O)c2ccccc2)cc1	0	-1.2%	11%	-17%
COc1ccc(OC(=O)c2cccc(S(=O)(=O)N3CCCC3)c2)cc1	-9	0.7%	16%	2%
C/C(=N\NC(=O)c1cccc(S(=O)(=O)N2CCOCC2)c1)c1ccc(O)cc1	.	0.6%	22%	.
CCOc1ccc(NC(=O)N(CCC(C)C)C2CCN(C(C)=O)CC2)cc1	10	-1.3%	-7%	-1%
CC(C)C[C@@H](C(=O)NCc1ccco1)N1C(=O)N2CCc3c([nH]c4ccccc34)[C@@]2(C)C1=O	.	-3.0%	3%	15%
Nc1cc(=O)[nH]c(SCC(=O)Nc2ccc3c(c2)CCC3)n1	0	0.4%	-20%	-9%
O=C(CSc1nnc(-c2ccc(Br)cc2)n1C1CCCCC1)N1CCCC1	-6	-0.4%	-4%	-26%
CC(C)(C)c1ccc(/C=C2\Oc3cc(OC(=O)N4CCOCC4)ccc3C2=O)cc1	6	-0.8%	2%	-4%
COc1cc2oc(-c3ccc(O)cc3)cc(=O)c2c(O)c1OC	2	0.8%	7%	-49%
COc1ccc(C(=O)CSc2nc(SC)ns2)cc1OC	3	-2.7%	0%	-3%
Fc1ccc(-c2cc(C(F)(F)F)nc(-n3cccn3)n2)cc1	-1	-1.5%	-4%	3%
Fc1cnc(Cl)nc1NC1CCCCC1	.	-0.3%	-3%	-6%
CCOc1cc2c3c(c1)C1(Nc4ccccc4S1)C(=O)N3C(C)(C)CC2C (centres undefined)	-6	-4.3%	-15%	10%
CCOc1cc(/C=C2\C(=N)N3N=C(C)SC3=NC2=O)ccc1OCCOc1cccc(OC)c1	.	-9.8%	-8%	3%
COC(=O)c1ccc(C(=O)OC)c(NC(=O)CCC(=O)O)c1	1	-0.9%	1%	1%
COc1ccc(NC(=O)C#Cc2ccccc2)cc1	.	-3.3%	5%	9%
COC(=O)C[C@H]1c2ccccc2S(=O)(=O)N1c1cccc(OC)c1	.	-3.9%	-12%	.
Cc1ccc(N2C(=O)C3Sc4[nH]c(=O)sc4C(c4ccccc4)C3C2=O)cc1 (centres undefined)	5	-1.0%	-2%	-6%
O=C(N/N=C1\CCS(=O)(=O)c2ccc(F)cc21)c1ccc(O)cc1	-5	0.4%	1%	-19%
COc1ccc(C(=O)/C=C/Nc2ccccn2)c(OC)c1	-5	?	?	-58%
CCCc1ccc(S(=O)(=O)N2CCN(C(C)C(=O)NC3CCCC3)CC2)cc1 (centres undefined)	.	-0.9%	-7%	.

Next part:
SMILES	GLA inh pH 4.5	Rango complex inh	Rango dissoc inh	miR-21 reporter
N#Cc1ccc(C(=O)Nc2cccc(S(=O)(=O)NC3=NCCC3)c2)cc1	.	-2.7%	-10%	.
c1ccc2c(c1)ncn2Cc1nnc2sc(-c3ccc4c(c3)OCO4)nn12	7	-3.1%	-9%	-20%
CCOc1ccc(NC(=O)C2=C(C)C(=O)OC23CCC(C)CC3)cc1 (centres undefined)	-6	-1.5%	0%	10%&3%
O=C(c1cccc(C(F)(F)F)c1)C1CCCN(C(=O)CN2CCCC2=O)C1 (centres undefined)	-1	-0.1%	-5%	-65%
O=S(=O)(NCc1csc(-c2cccs2)n1)c1cccc(C(F)(F)F)c1	1	-2.7%	0%	-5%
O=C(NCC1CCCN(C(=O)CN2CCCCC2)C1)c1ccccc1Cl (centres undefined)	-1	0.1%	0%	-2%
COC(=O)Cc1c[nH]c2ccc(OCC(O)CNC(C)C)cc12 (centres undefined)	4	1.8%	10%	1%
O=C(Nc1cccc(NC(=O)c2ccc(Br)cc2)c1)c1ccccc1	.	0.1%	13%	0%&-8%
O=C(Nc1cc(C(F)(F)F)ccc1N1CCCCC1)c1ccc(Br)o1	11	2.4%	5%	-4%
CCCCN(C(=O)CCC(=O)Nc1cc(C)on1)C(C(=O)NC(C)(C)C)c1ccccc1Cl (centres undefined)	.	3.1%	-12%	2%
Cc1ccc(C(=O)Nc2nnc(S(=O)(=O)N3CCC(C)CC3)s2)cc1	.	2.8%	19%	-24%
CCOc1ccc(N2CSC(=S)N(c3ccc(OCC)cc3)C2)cc1	6	0.1%	5%	-14%
COc1cccc(/C=C(/CC(=O)Nc2ccc(N3CCOCC3)cc2)c2nc3ccccc3s2)c1	5	0.5%	24%	-62%
Cc1ccc(C)c(S(=O)(=O)N2CCN(CC(=O)N3CCc4ccccc4C3)CC2)c1	-7	-0.5%	4%	5%
CCOC(=O)c1cnc(SCC(=O)N2CCN(C(=O)c3ccco3)CC2)nc1N	-25	4.1%	-8%	2%
COc1ccccc1OCCNC(=O)CC(NC(C)=O)c1ccccc1 (centres undefined)	.	2.6%	10%	0%
O=C1CCCN1CCCNC(=S)Nc1ccc(Br)cc1Cl	-2	-0.6%	0%	-12%
CC(C)c1ccc(OCc2ccc(C(=O)N3CCN(c4ccccn4)CC3)cc2)cc1	-6	-4.4%	-15%	24%
CCOC(=O)c1ccc(NC(=O)NC2CC3CCC(C2)N3)cc1 (centres undefined)	2	-0.8%	-10%	4%
Cc1ccccc1-c1nnc(SCc2ccccc2)o1	-8	-1.9%	10%	-66%

Only part of the results is shown, so the mix of outcomes need not match the whole.
